High-throughput results as filed in PubChem BioAssay.
Vaccinia mCherry: inhibitors of vaccinia virus infection (mCherry reporter signal); Vaccinia virus mCherry reporter infection, fluorescence; about a quarter of the inactives have no number; Potency, µM (top dose mostly 36.5 µM), inactives show top-dose activity change, negative = inhibition, actives largely listed as inhibitors; 310,000 tested, 0.63% active; active = well fitted inhibition curve with a large enough effect; inconclusive = small, poorly fitted or top-dose-only effect; inactive = no such curve, though single readings can be large or run the other way; tested in A549 cells; also: nearly all actives have a fitted effect of over 35% in size; inactives centre near -10
VACV Venus inh: vaccinia inhibition (Venus reporter); Vaccinia virus Venus reporter expression, fluorescence; Potency, µM (titrated, usually from 36.5 µM), for inactives: top-dose activity change, negative = inhibition, actives largely listed as inhibitors; 330,000 tested, 0.46% active; AID 720580; active means well fitted inhibition curve with a large enough effect; inconclusive means small, poorly fitted or top-dose-only effect; inactive means no such curve, though single readings can be large or run the other way; tested in A549 cells; also: nearly all actives have a fitted effect of over 30% in size; inactives centre near -10
Active calls of the source: *; i = inactive; u = inconclusive; x = no result given; [ ] = dose if it differs, or a comment. % is scaled to controls: 0 for no effect and ±100 for the full control effect; potency is read from the fitted curve at half-maximal effect. The order is random; about 0.87% have a hit in one of these screens.

Molecule	Vaccinia mCherry	VACV Venus inh
COCCCNc1ccn2nc(-c3cccc(OCc4ccccc4)c3)cc2n1	-25%	-17%
CCN(C(=O)CSc1n[nH]c(-c2ccc(OC)cc2)n1)c1c(N)n(Cc2ccccc2)c(=O)[nH]c1=O	-15%	-20%
CCn1c(CNc2ccccc2Cl)nnc1SCC(=O)OC1CCCCC1	u	-13%
COc1ccc(CNC(=O)c2cc3cc(C)ccc3n2C)cc1	u	18%
CCc1cc2c(cc(C(=O)OC)n2Cc2nc(-c3ccc(C)cc3)oc2C)s1	0%	-13%
O=C(Cn1cnc2c(cnn2-c2ccccc2)c1=O)OCc1ccccc1	-11%	-14%
Cn1c(Oc2cccnc2CN2CCCC2)nc2cc(-c3cccc(C(F)(F)F)c3)sc2c1=O	i	-9%
O=C(Nc1ccc(F)cc1)Nc1ccccc1F	-13%	-15%
CCOc1cc(Cl)c(NC(=O)c2ccco2)cc1OCC	-22%	-11%
CCOC(=O)CSC1=C(C#N)C(c2ccccc2)C(C(C)=O)=C(C)N1 (stereo not drawn)	-18%	-17%
CCOC(=O)[C@]12CCC=C1N(Cc1cccc3ccccc13)C(=O)[C@H](CC(=O)N1CCN(C(=O)C3CC3)CC1)C2	-18%	-19%
Cc1ccc(Cl)cc1N1CCN(C(=O)CCS(=O)(=O)c2cc(Br)cc3c2N(C(=O)C2CC2)CC3)CC1	-22%	-17%
CC1=C(C(=O)N(C)C)CC(CC(=O)NCCc2ccccn2)C(=O)N1Cc1ccc(C(C)(C)C)cc1 (stereo not drawn)	-6%	-24%
Cc1cc2c(cc1S(=O)(=O)CCC(=O)Nc1ccc(OC(F)(F)F)cc1)OCC(=O)N2	4%	3%
Cc1nc(SCC(=O)Nc2ccccc2C(F)(F)F)c2c(=O)n(C)c(=O)n(C)c2n1	i	-16%

Complete entries, looked up by structure:
CCOc1cc(Cl)c(NC(=O)c2ccco2)cc1OCC is listed as Vaccinia mCherry: -22%; VACV Venus inh: -11%
Cc1nc(SCC(=O)Nc2ccccc2C(F)(F)F)c2c(=O)n(C)c(=O)n(C)c2n1 is listed as Vaccinia mCherry: i; VACV Venus inh: -16%
CCn1c(CNc2ccccc2Cl)nnc1SCC(=O)OC1CCCCC1 is listed as Vaccinia mCherry: u; VACV Venus inh: -13%

Additional structures follow.
Molecule	Vaccinia mCherry	VACV Venus inh
CCOc1ccc(CCNC(=O)COC(=O)c2ccc(OC(C)C)cc2)cc1OCC	-12%	-20%
COc1ccccc1CC(=O)NCCN1CCCCC1	-12%	-4%
OC(CN1CCCC1)c1ccccc1 (stereo not drawn)	-18%	-8%
CC(C)(C)OC(=O)N1CCC[C@@H]1CO	-2%	-13%
COc1ccc2c(c1)CCCC21NC(=O)N(CC(=O)NC(=O)NCc2ccccc2)C1=O (stereo not drawn)	-7%	u
Cc1ccc2nc3c(cc(C(=O)NC4CCCCC4)c(=N)n3C(C)C)c(=O)n2c1	-7%[7.34 µM]	-1%[7.34 µM]
CC(=O)c1c(C)[nH]c(C(=O)OCC(=O)NCc2cccs2)c1C	-30%	-22%
CN(C)/C=C1\C=C(c2ccccc2)OC1=O	-14%	-12%
CCOC(=O)C1CCCN(S(=O)(=O)c2ccc3c(c2)CCN3C(=O)CC)C1 (stereo not drawn)	-7%	-1%
Cc1nc2ccccc2c2oc(C(=O)N3CCN(C4CCCCC4)CC3)cc12	-18%	-8%
COc1cccc2cc(C(C)N(CCCN3CCOCC3)C(=O)Nc3ccccc3)oc12 (stereo not drawn)	x	-8%
O=C(CN1CCN(C(=O)C2CCN(C(=O)/C=C/c3ccccc3)CC2)CC1)Nc1ccc(F)cc1	-27%	u
CC1=CCC2C(=O)N(c3cccc(C(=O)NCc4ccccc4)c3)C(=O)C2C1 (stereo not drawn)	i	-4%
Cc1ccc(OCC(O)CN2CCN(c3ccccn3)CC2)c(C)c1 (stereo not drawn)	-4%	-8%
CCOC(=O)c1cn2nc(N3CCCC3)ccc2n1	-2%	-11%

More records
Molecule	Vaccinia mCherry	VACV Venus inh
Cc1ccc(C(=O)c2oc3ccccc3c2NC(=O)COc2ccccc2Cl)cc1	-6%	9%
CSc1ccccc1NC(=O)CN(C)Cc1cccc(Cl)c1	0%	8%
COc1ccc(S(=O)(=O)N2CCOCC2)cc1NC(=O)CC1CCCC1	i	-4%
CCOc1ccccc1NC(=O)c1ccoc1C	-6%	1%
CCc1ccc(CN2CCc3nc(N4CCN(c5ccccc5F)CC4)ncc3C2)cc1	-28%	-26%
Nc1nccc(-c2ccc(-n3cccc3)cc2)n1	-5%	-10%
COc1ccc(/C(C)=N\Nc2nc(-c3ccccc3)cc(=O)[nH]2)cc1	-9%	-6%
COc1cccc(/C=C2\CCCCC2=O)c1	-13%	-17%
CN(C)Cc1ccccc1CNC(=O)c1cccc(S(=O)(=O)Nc2ccc3c(c2)OCO3)c1	-14%	-15%
COCCNC(=O)CNC(=S)N(Cc1ccccc1)Cc1cccnc1	-12%	0%
COc1ccc(NC(=O)Nc2ccc3[nH]ccc3c2)cc1	-8%	-2%
Cc1ccc(Cl)cc1N1CCN(Cc2nc3c(c(=O)[nH]c(=O)n3C)n2Cc2ccccc2F)CC1	u	u
O=C(O)c1ccccc1NC(=O)C1C2C=CC(C2)C1C(=O)O (stereo not drawn)	-15%	-6%
O=[N+]([O-])c1ccccc1/C=N/n1c(-c2cccnc2)n[nH]c1=S	i	-12%
CC1(C(=O)NS(=O)(=O)Cc2ccccc2)CCN1C(=O)C1(c2ccc(Cl)cc2)CCC1 (stereo not drawn)	-14%	16%

(next part)
Molecule	Vaccinia mCherry	VACV Venus inh
Cc1cc(N2C(=O)C(=O)/C(=C(/O)c3ccc(Cl)cc3)C2c2cccc(Br)c2)no1 (stereo not drawn)	i	-7%
Cc1nn(-c2ccccc2)c(C)c1/C=C/C(=O)OCC(=O)Nc1ncc(C(F)(F)F)cc1Cl	i	0%
CNc1nc(SC)nc2ccsc12	x	-8%
CSc1nc(SCC(=O)NCC2CCCO2)c2c3c(sc2n1)CN(C)CC3 (stereo not drawn)	-7%	-2%
O=C(NCCC(=O)N1CCc2ccccc21)c1ccccc1Cl	i	-11%
CSCCC(NC(=O)OC(C)(C)C)C(=O)NC(C(=O)NC(CC(C)C)C(N)=O)C(C)C (stereo not drawn)	-21%	-15%
O=C(c1ccccc1)c1cc2ccccc2o1	x	-11%
Cc1ccsc1/C=N\NC(=O)c1cc(C(C)(C)C)[nH]n1	-4%	-20%
C[C@H](CO)N1C[C@H](C)[C@@H](CN(C)S(=O)(=O)c2cccs2)Oc2ccc(NS(=O)(=O)c3cn(C)cn3)cc2C1=O	i	-6%
CC1(C(=O)NS(=O)(=O)c2ccc(Cl)s2)CCN1C(=O)C1CCCCC1 (stereo not drawn)	33%[activator]	-3%
CCN(CC)CCCN(Cc1cc2cc3c(cc2[nH]c1=O)OCO3)C(=S)NC	-3%	-6%
CCc1ccc(CN(Cc2ccco2)c2cnc(S(C)(=O)=O)nc2C(=O)Nc2c(C)cccc2C)cc1	-16%	-8%
CC(=O)N(O)c1ccc(C=Cc2ccccc2)cc1	u	-29%
CCCCOC(=O)Cn1nnc2sc(-c3ccccc3)cc2c1=O	-6%	2%
CCc1ccc(NS(=O)(=O)c2ccc3oc(=O)c4ncn(CC)c4c3c2)cc1	-15%	-11%

(cont.)
Molecule	Vaccinia mCherry	VACV Venus inh
COc1ccccc1CN1CC(C(=O)NCc2cccnc2)CC1=O (stereo not drawn)	-5%	-1%
CCc1nnc(NC(=O)CCC(=O)N2CCN(c3cccc(Cl)c3)CC2)s1	-4%	-13%
CCCCCC/C=C/c1ccc([C@H]2[C@H]3C=CC[C@@H](C)[C@@H]3C(=O)N2Cc2ccccc2)c(F)c1	-20%	-4%
Cc1ccc(-c2nc3cc(Cl)ccc3o2)cc1NC(=O)COc1ccc(F)cc1	-2%	-4%
CCc1ccc(-c2cn3c(n2)sc2cc(C(=O)NC4CCCCC4)ccc23)cc1	-11%	-4%
CCN=c1scc(C)n1/N=C/c1ccc(O)c(O)c1O	-15%	-1%
Cc1cc(C)n(CC2CC(=O)N(c3ccc(C)c(Cl)c3)C2=O)n1 (stereo not drawn)	-16%	-8%
CC(=O)C1CCC2C3CCC4=CC(=O)CC[C@@]4(C)C3CC[C@]12C (stereo partly drawn)	-10%	-9%
O=C(NCc1ccc(F)cc1)C1CCC(=O)N1CCc1ccccc1 (stereo not drawn)	-16%	-11%
CSc1ccccc1NC(=O)CSc1n[nH]c(N)n1	9%	6%
Cc1ccc(S(=O)(=O)N2CCOCC2)cc1C(=O)OCC(=O)Nc1ccc2c(c1)OCO2	-7%	-5%
Cn1cnnc1Sc1ccc(C(=O)OCC(=O)NCC(F)(F)F)cc1[N+](=O)[O-]	-29%	-7%
CCOc1ccc2nc(NC(=O)CSC3=NCCS3)sc2c1	x	u
CN1CCN(c2nc3ccccn3c(=O)c2C=O)CC1	0%	-8%
COCCn1c(-c2ccc(Cl)cc2Cl)nc2c(c(=O)c3ccccc3n2C)c1=O	-11%	-6%

Additional results:
Molecule	Vaccinia mCherry	VACV Venus inh
Cc1ccc(S(=O)(=O)N[C@H](C(=O)N2CCC(C(=O)N3CCC[C@H]3C(=O)O)CC2)C(C)C)cc1	x	-10%
CC(C)(C)S(=O)(=O)c1ccccc1C(=O)O	x	-12%
COc1ccccc1NC(=O)C(C)N1CCN(C/C=C/c2ccccc2)CC1 (stereo not drawn)	-25%	-16%
Cc1ccc(C(=O)COC(=O)CN2C(=O)C3C4CC(C(Br)C4Br)C3C2=O)cc1 (stereo not drawn)	-17%	0%
CCc1ccc(NS(=O)(=O)c2cc(-c3cnc(C4CC4)o3)ccc2C)cc1	-17%	-23%
COc1cc(-c2cnc3c(NC=O)cc(-c4cccc(C(=O)NCCN(C)C)c4)cn23)cc(OC)c1OC	-9%	-7%
COc1cccc([C@H]2Nc3ccc(S(=O)(=O)Nc4cc(C)ccc4C)cc3[C@H]3C=CC[C@H]32)c1	i	1%
CC1CN(S(=O)(=O)c2cccc(C(=O)Nc3ccccc3N3CCCCC3)c2)CC(C)O1 (stereo not drawn)	u	-26%
CC(C)C[C@H](NC(=O)[C@H](Cc1ccccc1)n1c(=O)[nH]c2ccccc2c1=O)C(=O)N1CCC[C@@H]1C(=O)O	3%	-5%
O=C(O)CCSSCCC(=O)O	-12%	-13%
CC(=O)c1ccc(NC(=S)NC(=O)Cc2ccc(Cl)cc2)cc1	i	-1%
CN(C)CCCNc1nc2cc(-c3cccc(C(F)(F)F)c3)sc2c(=O)n1C	-4%	-22%
CCOc1ccc(NC(=S)N2CCN(S(=O)(=O)c3ccc(C)cc3)CC2)cc1	-22%	-14%
Cc1ccc(-c2nc3n(n2)C(=O)CC(c2ccc(C)cc2)S3)cc1 (stereo not drawn)	-18%	2%
CC(C)N1CCc2c(sc(NC(=O)c3ccc(S(=O)(=O)N4CCOCC4)cc3)c2C(N)=O)C1	u	-6%

(continued)
Molecule	Vaccinia mCherry	VACV Venus inh
COC(=O)c1c(SC)nc2ccccc2c1OCc1cc(C)ccc1C	-15%	-4%
COCCCNC(=S)NNC(=O)c1ccccn1	u	-24%
Cn1c(N)c(C(=O)COC(=O)CCC2CCCC2)c(=O)n(C)c1=O	0%	-7%
CCC(Sc1nccn1C)C(=O)Nc1cccc2ccccc12 (stereo not drawn)	-19%	-16%
CCCCCCn1c(O)c(C=NCCN2CCOCC2)c(=O)[nH]c1=O	i	-5%
COc1cccc(C(=O)Nc2cccc(-c3nc4ncccn4c3C)c2)c1	-15%[7.34 µM]	-10%[7.34 µM]
COc1ccc(N(CC(=O)N/N=C/c2ccco2)S(=O)(=O)c2ccccc2)cc1	-2%	-17%
CCCCn1cnc(C(=O)OCC)c1N	-7%	-4%
CN(C(=O)CCN1C(=O)/C(=C/c2ccccc2)SC1=S)C1CCS(=O)(=O)C1 (stereo not drawn)	-14%	-15%
COc1ccc(OC)c(NC(=O)CCCc2nnc3n(C(C)C)c(=O)c4sccc4n23)c1	-15%	-6%
COC1CCCN(C(=O)c2ccc(OC3CCN(S(=O)(=O)N(C)C)CC3)cc2)C1 (stereo not drawn)	-14%	-8%
COCCNC(=O)c1ccccc1-c1ccccc1C(=O)O	x	-15%
Cc1ccc2nc(NC(=O)c3ccc(-c4nc5ccccc5s4)s3)sc2c1	-11%	-12%
CCCOc1ccccc1C1NC(=O)NC(C)=C1C(=O)OCc1ccccc1 (stereo not drawn)	-29%	-18%
CC(=O)c1c(C)[nH]c(C(=O)OCC(=O)Nc2cc(S(=O)(=O)N3CCCCC3)ccc2C)c1C	-15%	-13%
C=CCN1Cc2ccccc2-n2nncc2C1	5%	-5%
COCCNC(C(=O)Nc1ccc(C)cc1[N+](=O)[O-])c1ccccc1 (stereo not drawn)	-2%	-3%
COc1ccc(-n2c(=O)c3sc4ccccc4c3n(CC(=O)NC3CCCCC3)c2=O)cc1	2%	4%
